MT1-MMP act inh – blockers of MT1-MMP proenzyme processing, primary screen, HT1080 RFP-PRO-GFP cells, GFP/RFP fluorescence. Matrix metalloproteinase-14 (Homo sapiens), P50281. GFP/RFP ratio fluorescence, overnight; percent of plate control window, DMSO zero. GFP/RFP ratio change, % at 20 µM. actives 0.061% (n = 360,000). AID 651647, 2012;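 active = GFP/RFP ratio change of at least 30% with cell ATP level not reduced by more than half and red fluorescence within 50% of control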; note: strong numbers were not always called active
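Material – HT1080 RFP-PRO-GFP cells · Control set – DMSO wells and RFP-L50D-GFP cells · Incubation – overnight cell settling, then overnight compound exposure, 37 °C, 5% CO2 · Compound dosing – single-point 20 µM compound, 1% DMSO · Read-out – GFP/RFP fluorescence ratio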
PABP polyA inh – PABP poly(A) RNA binding inhibitors, primary screen, biochemical, fluorescence polarization, uHTS. Polyadenylate-binding protein 1 (Homo sapiens), P11940. inhibition, % at 35 µM. actives 1% (n = 290,000);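 active = 50% or more with normal probe brightness, or confirmed in later tests; inconclusive = above 50% with abnormal brightness, or retests that disagree; inactive = below 50% or failed in later tests; about a fifth of its hits are not listed in these tables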;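 note: calls also rest on retests at 20 µM and on dose response follow-up; controls were probe without protein and protein plus probe with vehicle; some compounds called inactive have numbers as strong as hits; many hits fall short of the cut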
Rce1 inh – yeast Rce1p protease inhibitors, primary screen, biochemical, fluorescence, cell-free homogeneous | CAAX prenyl protease 2 (Saccharomyces cerevisiae (strain ATCC 204508 / S288c)), Q03530 | yeast membranes, quenched prenylated peptide cleavage fluorescence | calls only | actives 0.27% (n = 290,000);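 active = fall in fluorescence gain of 50% or more versus controls, with final raw signal at or below 3038400; inconclusive = same 50% fall but final raw signal above 3038400; inactive = fall in fluorescence gain under 50%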;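 note: plate controls were neutral control wells for no effect and wells lacking membranes for full effect; tested at 10 µM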
Target sequence (Q03530 whole entry, looked up): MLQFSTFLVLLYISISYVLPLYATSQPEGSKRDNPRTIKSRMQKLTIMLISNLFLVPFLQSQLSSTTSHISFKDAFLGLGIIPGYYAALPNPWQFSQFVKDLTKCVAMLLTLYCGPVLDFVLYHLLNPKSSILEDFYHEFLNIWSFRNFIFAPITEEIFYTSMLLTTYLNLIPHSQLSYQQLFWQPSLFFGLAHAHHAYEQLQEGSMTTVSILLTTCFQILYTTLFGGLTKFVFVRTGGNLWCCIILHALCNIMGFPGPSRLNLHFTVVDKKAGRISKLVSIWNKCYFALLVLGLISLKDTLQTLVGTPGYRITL
Yeast UUG start – modulators of yeast start codon fidelity, primary screen, whole organism, S. cerevisiae, single point, plate reader; AID 602363, 2012; actives 0.13% (n = 350,000); activity score, % at 18.7 µM; S. cerevisiae UUG-firefly luciferase reporter, luminescence/redox ratio;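 active = replicate mean at a twofold rise or more, about +100% in these data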;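 note: firefly luciferase made from a UUG start codon reports start codon fidelity; reporter light over untreated wells divided by growth signal over untreated wells; some hits fall short of that in this replicate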
HIV Env fusion – inhibitors of HIV-1 Env-driven cell-cell fusion, primary screen, HeLa-JRFL effector, CEM21 target cells, luciferase; inhibition, % at 12.3 µM; actives 1.1% (n = 360,000);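 active = mean replicate inhibition score of at least 50 and every replicate individually at or above 50; inconclusive = only one of the two criteria met; inactive = mean below 50 and not all replicates reaching 50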;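 note: 0% = plate neutral controls and 100% = maraviroc near 300 nM; one replicate is shown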
eIF4H FP inh – human eIF4H binding inhibitors, primary screen, translation initiation inhibitor project, biochemical, uHTS, fluorescence polarization | AID 2012, 2009 | Eukaryotic translation initiation factor 4H (Homo sapiens), Q15056 | inhibition, % at 35 µM | actives 0.94% (n = 290,000) | eIF4H fluorescence polarization binding assay;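 active = 50% or more with normal probe brightness, or confirmed in later tests; inconclusive = above 50% with abnormal brightness, or retests that disagree; inactive = below 50% or failed in later tests; about a fifth of its hits are not listed in these tables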;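 note: calls also rest on retests at 20 µM and on dose response follow-up; 0% = protein and probe with vehicle and 100% = probe without protein; strong numbers were not always called active; many hits fall short of the cut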
CSC inhib – cancer stem cell viability inhibitors, primary screen, luminescence | cancer stem cell-like cells viability | inhibition, % at 7.5 µM | actives 1.1% (n = 300,000);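 active = mean at 75% or more and at least half the replicates too; inconclusive = mean and replicates disagree; tested in HMLE shEcad cells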;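 note: 0% = median of negative and 100% = median of positive control wells; the first replicate is given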
eIF4H FP inh retest – recorded beside eIF4H FP inh, whose call it bears; inhibition, %; compound at 20 µM; confirmation average;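 mean of two retest wells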
PABP polyA inh retest – recorded beside PABP polyA inh, whose call it bears; inhibition, %; compound at 20 µM; confirmation repeats;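 mean of two retest wells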
MT1-MMP act inh RFP – recorded beside MT1-MMP act inh, whose call it bears; RFP signal change, %; measured here: RFP expression control read;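 0 = vehicle wells; hits needed this value within 50% of zero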
* hit, by the source's call; i = inactive; ? = inconclusive; / = no result given.

SMILES	MT1-MMP act inh	MT1-MMP act inh RFP	PABP polyA inh	Rce1 inh	Yeast UUG start	HIV Env fusion	eIF4H FP inh	CSC inhib	others
COc1cc(NC(=O)CNC(=O)Cn2c(C)cc3ccccc3c2=O)cc(OC)c1OC	6	-3	0	i	-14	1	-4	/
Cc1nc(N)nc(Nc2ccc(Cl)cc2)c1Br	-1	-7	-2	i	-16	-268	0	-4
O=C(COc1cc2oc(=O)c3c(c2cc1Cl)CCCC3)NCc1cccnc1	2	-1	8	i	-5	-13	-14	10
O=C(COC(=O)c1cncc(Br)c1)NCc1cccs1	0	2	/	/	0	/	/	-20
O=C(CSc1cccc[n+]1[O-])Nc1ccc(N2CCOCC2)cc1	/	/	3	i	/	-20	-8	7
Cc1nc2cc(C(=O)OCC(=O)NC34CC5CC(CC(C5)C3)C4)ccc2n1-c1ccccc1	0	-1	-7	i	-7	/	-12	34
Cc1ccc(S(=O)(=O)N2CCC(C(=O)OCC(=O)N(Cc3ccccc3)C(C)C)CC2)cc1C	2	5	/	/	-13	22	/	/
NNC(=O)c1ccc(Cn2cc(Cl)cn2)o1	-4	-4	0	i	-15	-3	-5	3
CCOc1cccc(N2CCN(CCNC(=O)Nc3ccc(C)cc3)CC2)c1C	0	-8	-5	i	-21	11	8	-5
CC(C)(C)NC(=O)/C=C/c1cccs1	-4	-1	9	i	/	-4	-10	-16
O=C(O)CCNC(=O)OCC1c2ccccc2-c2ccccc21	0	1	-6	i	-12	-12	10	2
O=C(NCC12CC3CC(CC(C3)C1)C2)c1cc2n(n1)C(C(F)(F)F)CC(c1ccco1)N2 (stereo unspecified)	-9	-6	1	i	-22	/	3	65
CCOC(=O)N1CCN(C(=O)CSCC(=O)Nc2nc(-c3ccc(OC)cc3)cs2)CC1	7	0	-2	i	-18	-14	11	-8
Cc1cccc(C(=O)NC(=S)Nc2ccc3[nH]c(=O)[nH]c3c2)c1	4	-3	-12	/	/	11	-1	-1
O=c1c2c(nc3nc(NCc4cccc(Cl)c4)[nH]n13)CCC2	3	2	-5	i	1	1	2	-3
CCSc1nnc(NC(=O)c2ccccn2)s1	4	0	2	i	-76	-19	-4	2
O=S(=O)(c1cccs1)N1CCN(CC(O)COc2cc(Cl)ccc2Cl)CC1 (stereo unspecified)	-10	-30	-9	/	-8	?	-4	22
Cn1ncc2c(NNC(=O)Cc3ccccc3)ncnc21	-6	3	-6	i	-18	1	-4	-18
O=C(Nc1cccc(-c2nn[nH]n2)c1)c1csc2c1CCCC2	-5	3	7	i	-20	/	7	-3
CCOc1ccc(CCNC(=O)COC(=O)c2n[nH]c3ccccc23)cc1OCC	5	5	/	/	-9	42	/	/
N#Cc1c(-c2ccccc2)c(-c2ccccc2)nn(CC(=O)NNC(=O)Nc2ccc(Cl)cc2)c1=O	1	-11	3	i	-17	-14	-10	41
CCOC(=O)CN1C(=O)N[C@@H](c2ccc(Br)cc2)C(C(=O)OC)=C1C	-1	2	-4	i	-19	9	5	-3
CCN(CC)S(=O)(=O)c1cccc(C(=O)/C=C2/N(C)c3ccccc3C2(C)C)c1	-2	-13	-3	i	-16	9	-6	41
O=[N+]([O-])c1ccccc1Sc1nccn1Cc1ccccc1	0	0	4	i	-9	-31	-8	-2
CC(C)CC(=O)Nc1cc2c3c(c1)C(C)C(=O)N3CCC2 (stereo unspecified)	-2	3	14	i	-10	-37	16	-11
COC(=O)C1(NC(=O)CNC(=O)OCc2ccccc2)CCCC1	-3	7	/	/	-9	6	/	/
CCOc1cc(-c2nc3cc(C)ccn3c2NCC2CCCO2)ccc1O (stereo unspecified)	-3	1	60	i	-16	-22	-7	-7	eIF4H FP inh retest=-4;PABP polyA inh retest=-4
CCN(C(=O)Cn1nc(C)c([N+](=O)[O-])c1C)c1c(N)n(Cc2ccccc2)c(=O)[nH]c1=O	-1	0	/	i	/	/	/	-12
COc1ccc(OC)c2c(C)cc(NCCN3CCOCC3)nc12	5	9	-4	i	-7	-8	-2	6
Cc1ccc(OCCNCC(O)COc2ccccc2)cc1 (stereo unspecified)	4	4	14	i	-4	-9	9	0
CN1CCN(Cc2c(O)ccc3cc(Br)ccc23)CC1	/	/	-10	i	/	19	-2	-36
Cc1occc1C(=O)N/N=C/c1ccc2c(c1)OCO2	4	2	5	i	/	-107	-3	49
CCSc1ccccc1C(=O)Nc1cc(OC)c(OC)c(OC)c1	0	1	-8	i	/	14	-9	-2
COc1ccc(Br)cc1/C=C/C(=O)NC(=S)Nc1ccc(CN2CCOCC2)cc1	-4	-1	-1	i	-22	-18	5	-14
CCOc1ccc(C(C)NC(=O)Cc2ccccc2F)cc1OCC (stereo unspecified)	-12	-3	-6	i	/	-4	-7	/
COc1cccc(Oc2ccc(OC)cc2C(=O)O)c1	1	6	9	i	117*	7	1	1
COc1ccc(C2=NC(=O)NC2c2ccc(OC)cc2)cc1 (stereo unspecified)	0	-1	-1	i	/	3	-7	-10
Cc1cc(C(=O)OCC(=O)NC2CCS(=O)(=O)C2)c2ccccc2n1 (stereo unspecified)	-2	2	-11	i	-3	-10	-6	-15
CCOC(=O)c1sc(NC(=O)CNCc2ccccn2)c(C(=O)OCC)c1C	5	-11	-10	i	/	14	2	28
COc1ccccc1CNC(=O)Nc1nc(C(N)C(C)C)cs1 (stereo unspecified)	4	2	/	/	-19	-12	/	/
CCC(C)c1ccc2oc(-c3ccc(NC(=O)c4ncn[nH]4)cc3)nc2c1 (stereo unspecified)	16	5	6	i	-4	-36	6	62
COC(OC)C1(C)C(C#N)=C(N)Oc2c1c(=O)oc1ccccc21 (stereo unspecified)	-4	0	-1	i	0	14	-14	-2
CCN1C(=O)c2cccc3c(NC(=O)c4ccc(S(=O)(=O)N5CCOCC5)cc4)ccc1c23	-1	0	1	i	3	/	4	-1
COC(=O)c1cc2c(s1)-c1cc(F)ccc1OC2	10	-5	-5	i	/	-33	-5	-4
O=C(CN1CCCCCC1)Nc1ccc(F)c(F)c1	4	4	-6	i	-2	/	-3	4
C=CCNc1nc(N2CCOCC2)c(C#N)c2c1CN(C)CC2	-17	8	42	i	/	-26	38	0
Cc1ccc(S(=O)(=O)CCC(=O)OCc2nnc(-c3ccc([N+](=O)[O-])cc3)o2)cc1	0	2	/	/	-9	-9	/	/
Cc1cccc(OCC(=O)Nc2cc(NC(=O)COc3cccc(C)c3C)cc(C(=O)O)c2)c1C	8	-4	19	i	-19	-15	8	9
CC(=O)c1cc2c(cc1C)CCCC2(C)C	-1	1	/	/	-5	16	/	/
Cc1cccc(NC(=O)NNC(=O)c2cc3occc3[nH]2)c1C	2	5	2	i	-14	-1	-5	-4
Cc1cc(Cl)ccc1NC(=S)N1CCN(C(=O)C2CCCO2)CC1 (stereo unspecified)	-2	1	3	i	/	28	3	-1
Cc1cc(=O)[nH]c2ccc(S(=O)(=O)NC3CCCCC3)cc12	5	7	61	i	-8	27	-1	-4	eIF4H FP inh retest=-4;PABP polyA inh retest=7
CCN(C(=O)CSc1ccc2ccccc2c1)C1CCS(=O)(=O)C1 (stereo unspecified)	0	2	-10	i	/	16	-10	3
O=C(NC1CCN(S(=O)(=O)c2ccc(F)cc2)CC1)c1ccco1	3	7	7	i	4	-12	-4	/
COC(=O)c1ccccc1N=Nc1c(C)n[nH]c1C	-4	2	-3	i	/	7	1	-2
Cc1cccc(C)c1NC(=O)C(c1ccccc1OC(F)(F)F)N1CCN(C/C=C/c2ccccc2)CC1 (stereo unspecified)	8	-10	/	/	14	-15	/	/
COc1ccc(N=Cc2ccc(CNS(=O)(=O)c3ccc(Cl)cc3)o2)cc1	7	1	1	i	-9	/	-15	22
COc1ccccc1CNC(=O)CCc1c(C)nc2cc(-c3ccccc3OC)nn2c1C	-1	-1	6	i	/	3	10	-10
CCOC(=O)c1c(C)[nH]c(C(=O)NNC(=O)c2ccc(C(C)(C)C)cc2)c1C	3	4	-22	i	/	-12	-6	14
O=C(Nc1ccccc1C(=O)NCCCN1CCOCC1)c1cccc([N+](=O)[O-])c1	-5	2	0	i	-11	17	-8	12
The list goes on.
SMILES	MT1-MMP act inh	MT1-MMP act inh RFP	PABP polyA inh	Rce1 inh	Yeast UUG start	HIV Env fusion	eIF4H FP inh	CSC inhib	others
COc1ccc(Nc2oc(-c3ccc(F)cc3)nc2C#N)cc1	-1	0	-2	i	-13	-69	4	31
CC(=O)COc1cccc2ccc(/C=C/c3ccc(Br)s3)nc12	0	-5	9	i	5	-27	22	40
COc1ccc(CCC(=O)Nc2ccc(OC)c(S(=O)(=O)N3CCCCC3)c2)cc1	11	-7	/	/	-17	10	/	/
CCc1nnc(NS(=O)(=O)c2ccc(N/C=C\C(=O)c3ccc(F)cc3)cc2)s1	2	-2	13	i	/	9	0	7
O=C(c1cccc(S(=O)(=O)NCc2ccccc2)c1)N1CCN(c2ccc(F)cc2)CC1	-3	-11	/	/	-4	3	/	-15
O=C(CCN1CCOCC1)NCc1ccccc1	-2	2	1	i	-13	12	9	11
CN(C)CCN(C)Cc1ccccc1Sc1cccc2ccccc12	-13	-8	-2	i	-3	/	4	/
Nc1c(-c2ccccc2)cnc2ncnn12	4	10	4	i	-16	-40	-11	10
CCOc1ncccc1C(=O)OC(C)C(=O)Nc1ccc(N2CCOCC2)cc1 (stereo unspecified)	-2	3	/	/	-18	/	/	-10
COC(=O)COc1ccc(S(=O)(=O)N2CCCCC2)cc1[N+](=O)[O-]	-7	-4	-5	i	/	-12	2	-9
Cn1ccc2c(-c3ccc(CO)cc3)cc3c(c21)C1CCC3O1 (stereo unspecified)	1	1	/	/	-3	1	/	/
CC(/C=C/c1ccccc1)=N\NC(=O)c1cc(C)[nH]n1	0	0	-12	i	/	0	-1	2
C[C@H]1CN=C(Nc2ccccc2)N1CCc1ccccc1	1	-2	/	/	-4	-29	/	-11
O=C(NNC(=O)c1ccc2c(=O)n3c(nc2c1)CCC3)c1ccc(F)cc1	1	6	/	i	/	-1	/	-8
OC(c1ccccc1)c1nc(-c2csc3ccccc23)cs1 (stereo unspecified)	2	2	/	/	-7	-11	/	/
CCN(CC)C(=O)C1=C(C)N(CCC2=CCCCC2)C(=O)C(CC(=O)NCCc2ccccn2)C1 (stereo unspecified)	-1	1	/	/	-23	11	/	/
CC(C)CCn1c(=O)c2ccccc2n2c(CN(C)Cc3ccccc3)nnc12	5	-7	6	i	45	-22	-7	-4
Nc1ncnc2c1ncn2[C@@H]1O[C@H](C(=O)N2CCC[C@@H]2C(=O)OCc2ccccc2)[C@@H](O)[C@H]1O	5	1	/	/	6	19	/	/
O=C(CSc1n[nH]c(=O)[nH]c1=O)Nc1ccc2c(c1)C(=O)c1ccccc1C2=O	4	6	75*	i	14	-3	98*	-4

Compound activity from PubChem.

Only part of the results is shown, so the mix of outcomes need not match the whole.
